High-throughput results: PubChem, ICCB-Longwood Screening Facility, Harvard Medical School
AID504770: growth inhibitors of E. coli YBA685 in a screen for V. cholerae RctB (chromosome II replication) inhibitors | AID 504770 | 130,000 tested, 0.27% active | z-score (concentration not given with the values) | E. coli YBA685 rctB-dependent plasmid, OD600 growth, 3 h; hits give low values;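 active = z-score under -2 on both plates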;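 note: wells of about 30 µL received 100 nL stock; score is relative to mean and SD of the test wells; the first replicate is given; strong numbers were not always called active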
Ba CapD inh: inhibitors of Bacillus anthracis CapD enzyme. purified CapD enzyme, fluorescence intensity read-out; hits give low values; some hits fall short of the stated cut. z-score (concentration not given with the values). 140,000 tested, 0.23% active;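 active = z-score under -4 in either of two replicates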;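 note: stock transfer was 100 nL into about 40 µL; score is relative to mean and spread of the plate; one replicate is shown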
Starred values were filed as active, the others as inactive; . = no result given; & = joins results of further samples. These rows are one share of the data; count on the stated rates, not on these rows.

SMILES	AID504770	Ba CapD inh
O=C(CSc1nnc(NC(=O)C2CC2)s1)Nc1ccccc1	-0.95	0.1
COc1ccc(CCNS(=O)(=O)c2ccc(F)c(C(=O)Nc3ccc(C(F)(F)F)cc3)c2)cc1OC	.	-0.47
COC(=O)c1ccc(OC(=O)/C=C/c2cccn2C)cc1	0.6	.
Cc1ccc(/C=N/c2sccc2C#N)cc1	0.7	-0.28
CS(=O)(=O)c1cccc(C(=O)NCc2ccccc2)c1	-0.9	.
O=C(COC(=O)CC1CCS(=O)(=O)C1)Nc1ccc(F)cc1 (centres undefined)	-0.3	.
COc1ccc(Cl)cc1CC(=O)O	1.5	.
COc1ccc(-n2cc(-c3ccccc3)c3c(NCCc4ccc(S(N)(=O)=O)cc4)ncnc32)cc1	.	0.95
NC(=O)c1ccc(N2CCCCC2)c(N2C(=O)C3CC=CCC3C2=O)c1 (centres undefined)	0.05	.
O=C(c1csc(Nc2cccc3ccccc23)n1)N1CCCCC1	-0.55	20
CCOC(=O)c1cc(CSc2n[nH]c(=O)n2-c2ccccc2)on1	-0.25	-0.095
CCN1C(=O)S/C(=C/c2cc(Br)c(OCC(=O)O)c(OC)c2)C1=O	-0.55	0.26
COc1ccccc1NC(=O)NC1CCN(c2nccc(C(F)(F)F)n2)CC1	.	6.9
CCN(CCO)C(=O)c1ccc(C(C)(C)C)cc1	-0.4	-0.5
Cc1cccc2c1N(C(=S)Nc1cccc(C(F)(F)F)c1)CCC2	.	-0.78
Cc1oc2ncn(CC(C)C)c(=O)c2c1C(=O)NC1CC1	0.25	0.38
O=C1c2ccccc2-c2onc3ccc(Oc4ccccc4)c1c23	.	-0.92
CC(=O)N1CCN(c2ccc(OCC3CO[C@](Cn4ccnc4)(c4ccc(Cl)cc4Cl)O3)cc2)CC1 (some centres undefined)	0.5	0.3
Cc1ccc(C(=O)N/C(=C\c2cn(-c3ccccc3)nc2-c2ccccc2)C(=O)NCC2CCCO2)cc1 (centres undefined)	.	-0.14
Nc1ccc(Oc2ccccc2)cc1	0.6	-0.34
N#CCC1(C#N)CCc2ccccc21 (centres undefined)	-0.3	0.46
O=C1NC(=S)N/C1=C\c1cccc(OCc2ccc(F)cc2)c1	0.4	3.3
CCN(Cc1ccc2c(c1)OCCO2)C(=O)c1c(F)cccc1F	0.3	.
CC1CN(c2nn(C)c(=O)n(C)c2=O)CC(C)O1 (centres undefined)	1.1	.
CCOc1cc(C2C(C(=O)OC)=CN(Cc3ccc(OC)c(OC)c3)C=C2C(=O)OC)cc(Br)c1OCC	.	59
SMILES	AID504770	Ba CapD inh
CC(C)=CC(=O)Nc1ccc2c(c1)OCCO2	-1.1	-0.095
COc1ccc(NC(=O)CC#N)cc1OC	0.85	1.2
NNC(=O)C1c2ccccc2Oc2ccccc21	.	0.29
Cc1ccc(C)c(-n2nnnc2SCC(=O)OCC(=O)Nc2ccccc2C)c1	-0.25	.
FC(F)(F)c1ccc(-c2nnc(SCc3ccc(Cl)cc3)s2)nc1	1.2	0.47
Cc1ccc(-c2nnc(Nc3ccccc3)c3ccccc23)cc1S(=O)(=O)NC(C)(C)C	1.3	-0.44
Nc1nc(Nc2ccc(Cl)cc2)nc(-c2ccc([N+](=O)[O-])o2)n1	.	-0.015
CCOC(=O)c1sc(SCc2ccccc2)c2c1CCCC2=O	.	-0.22
FC(F)(F)COc1nc(N2CCOCC2)nc(N2CCN(Cc3ccccc3)CC2)n1	.	-0.45
O=C(O)C1C2C=CC(C2)C1C(=O)N1CCN(Cc2ccccc2)CC1 (centres undefined)	0.05	.
CCc1sc(N)nc1-c1ccc(Cl)cc1	-0.6&-0.65	-0.06&1.3
CCSc1nnc(-c2cccc(Cl)c2)n1CC	0.35	.
CCc1ccc(C(=O)c2cc3ccc(O)cc3oc2=O)cc1	-1	-3.6
COC(=O)Cn1c(=NC(=O)c2ccccc2)sc2cc(OC)ccc21	0	.
COc1ccc(CCNC(=O)c2nc3ccccc3c(=O)n2-n2cccc2)cc1OC	-0.45	0.22
c1ccc(-n2nnnc2N2CCCC2)cc1	-1.1	.
CN1/C(=C\C=N\c2ccccn2)C(C)(C)c2ccccc21	-0.25	.
Cc1nc(C(=O)NCC(=O)c2cccc(Cl)c2)c(C(F)(F)F)o1	-1.2	-0.19
N#Cc1oc2ccccc2c1NC(=O)Cc1c(Cl)cccc1Cl	-0.05	.
Fc1ccc(-c2nc3cc(Cl)ccc3o2)cc1	-1	-0.14
O=C(O)c1c[nH]c2ccccc2c1=O	0.5&-1.2	4.8&-0.36
O=C1c2ccccc2-c2c1c1ccccc1c(=O)n2CC1CC1	2.1	-0.85
N#C/C(=C\c1ccsc1)C(=O)NCc1ccco1	2	.
CC(=O)NCC1(c2ccccc2)CCOCC1	.	-0.2
COC(=O)c1ccccc1NC(=O)CN1C(=O)CSc2ncccc21	-0.9	0.045
SMILES	AID504770	Ba CapD inh
CCCN1CCN(c2ncnc3sc(C(=O)O)c(C)c23)CC1	.	-0.66
O=C(/C=C/c1ccc(F)cc1Cl)NNC(=O)OCCCCc1ccccc1	.	13
Oc1ccc2c(c1)c(-c1ccccc1)nn2-c1ccccc1	0.45	67
Cc1cc(=O)oc2cc(OCC(N)=O)ccc12	-0.3	47
Cc1cc(C)n(-c2ccc3ccccc3n2)n1	-0.9	2.9
O=C(COC(=O)C1CCN(c2ccc(C(F)(F)F)cn2)CC1)NC1CCCCC1	-0.85	.
COc1ccc(/C=c2\sc3nc(-c4ccccc4)c(-c4ccccc4)n3c2=O)cc1OC	.	17
CC1(C)COC(CCOC(=O)N2CCN(C(c3ccccc3)c3ccc(Cl)cc3)CC2)OC1 (centres undefined)	.	-0.85
Cc1nc(NCCC(=O)O)c2c3c(sc2n1)CCCC3	-1.1	.
CCN1/C(=C\C=C\C(=O)c2ccccc2OC)Sc2ccccc21	-0.1	-0.68
O=C(NC1CCCCC1)C1CCCN(S(=O)(=O)c2cccs2)C1 (centres undefined)	1.1	-0.28
O=C(NCc1ccccn1)c1cc2cccnc2nc1C(F)(F)F	.	-0.03
O=c1c2ccccc2sn1-c1ccc(S(=O)(=O)N2CCOCC2)cc1	-0.2	.
CC1(C)OC[C@@H]([C@H](O)P(=O)(c2ccccc2)c2ccccc2)O1	-0.7	0.32
O=C(NCCc1c[nH]c2ccc(Cl)cc12)OCc1cc(F)ccc1C(F)(F)F	.	0.095
CC(C)(C)c1ccc(Oc2ccc([N+](=O)[O-])cn2)c(Cl)c1	.	0.22
C=CCC(Nc1ccc(OC)c(OC)c1)c1ccco1 (centres undefined)	0.35	.
COCCNC(=O)c1c[nH]c2ccccc2c1=O	-2.7	.
Cc1oc(-c2ccccc2F)nc1CSCC(=O)NC1CC1	0.05	-0.26
CCc1nc(-c2ccccc2)cc(=O)[nH]1	0.25	-0.06
CC1(C)CC(=NN=C2CC(C)(C)NC(C)(C)C2)CC(C)(C)N1	-0.45	0.28
O=C(Nc1ccccc1C(=O)N1CCC(c2c[nH]c3ccccc23)CC1)c1c(F)cccc1F	.	-0.42
COC(=O)CN1C(=O)C2(C(C#N)=C(N)Oc3n[nH]c(-c4ccc(C)cc4)c32)c2ccccc21 (centres undefined)	.	0.12
Cc1ccccc1-n1c(SC2CCOC2=O)nnc1-c1ccncc1 (centres undefined)	-0.15	.
Cc1ccc(CC(=O)NCCCn2ccnc2)cc1	0.35	-0.74
SMILES	AID504770	Ba CapD inh
CC(C)n1cc(-c2ccc(C(=O)NCc3ccccc3)cn2)cn1	.	3.2
COc1ccc(NC(=O)C2C3C=CC4(O3)C2C(=O)N(CCCN2CCOCC2)C4C(=O)NC2CCCC(C)C2C)cc1 (centres undefined)	-0.55	0.02
O=C(CSc1ccc(Br)cc1)NCCCc1ccccc1	1.8	-0.77
COC(=O)C(C)NC(=O)C1CCCCC1 (centres undefined)	0.9	.
CCNc1nc(NC(C)C)nc(SC)n1	-0.1	-1.2
O=C1NC(=O)C(O)(c2c(O)c3ccccc3n(Cc3ccccc3)c2=O)C(=O)N1	-0.4	.
COc1ccc(-c2cc3c(nn2)Nc2ccccc2S3)cc1	0.35	0.32
Cc1c(C(=O)COC(=O)c2ccccc2Cl)sc2ccccc12	0.6	-0.88
CCS(=O)c1ccccc1C(=O)OC(C)C(=O)Nc1ncc(Cl)cc1Cl (centres undefined)	-1.5	.
Cc1ccc(C)c(C(=O)CCC(=O)NCc2ccc3c(c2)OCO3)c1	0.3	.
CN1CCc2nc3sc4c(=O)[nH]c(=O)[nH]c4c3cc2C1	-0.85	.
O=C(O)/C=C/C(=O)N1CCCc2ccccc21	.	-0.005
CCn1c2ccccc2c2cc(CN3CCN(C(=O)c4ccc(Oc5ccccc5)cc4)CC3)ccc21	.	6.5
O=C1c2ccccc2C(=O)C2(O)OCCOC12O (centres undefined)	-0.5	-1
O=C(CSc1c2c(nc3ccc(Cl)cc13)CCCC2)NC1CC1	1.4	-0.22
COc1cc(/C=C2/SC(N)=NC2=O)ccc1OCc1ccc(Cl)cc1Cl	.	0.28
Cc1nc(-c2cccnc2)nc(N2CCCN(c3ncc(C(F)(F)F)cc3Cl)CC2)c1Cl	.	-0.41
COC(=O)Cn1ncc2c3ccccc3n(C)c2c1=O	0.5	9
CCOc1cc2c(cc1OCC)C1C(C(=O)NCCCN3CCN(C)CC3)c3ccccc3C(=O)N1CC2 (centres undefined)	1.8	0.01
Nc1[nH]n(-c2ccccc2)c(=O)c1C1=NCCCCC1	0.3	.
Cn1c2ccccc2c2nnc(SCCCC(=O)c3ccc(F)cc3)nc21	-0.35	0.73
Cc1cc2nccc(-c3ccccc3)n2n1	0.15	0.02
CCOC(=O)C1=C(C)N=c2s/c(=C\c3ccc(N4CCCCC4)o3)c(=O)n2C1c1ccc(OC)c(OC)c1 (centres undefined)	.	0.12
CC(OC(=O)c1nn(C)c(=O)c2ccccc12)C(=O)N1CCCC1 (centres undefined)	-0.3	.
CC(=O)C(C)(C)OC(=O)N1CCOCC1	.	-0.34
SMILES	AID504770	Ba CapD inh
COc1ccc(Cl)cc1N(C)S(=O)(=O)c1ccc2[nH]cc(C(=O)NCCC3=CCCCC3)c(=O)c2c1	.	-0.53
Cc1cc(C(=O)N2CCN(C(c3ccccc3)c3ccccc3)CC2)on1	1.8	-0.38
COC(=O)c1c(C)nc2n(CCN3CCCCC3)c3ccccc3n12	0.2	-0.03
N#Cc1c(SCCCOc2ccccc2)sc2c(=O)[nH]c(=O)[nH]c12	-0.85	.
Cc1ccccc1Cn1c(NC(=O)C2CCCCC2)nc2ccccc21	.	0.035
Cc1cccn2c(=O)c3cc(C(=O)N(C)Cc4ccccc4)sc3nc12	-0.1	0.19
CCN(C(=O)Cc1c(C(=O)O)[nH]c2ccc(Cl)cc12)c1ccc(C)c(C)c1	-0.5	0.11
CSc1nc2ccc(NC(=O)CCNC(C)=O)cc2s1	-0.6	.
CCCCOc1ccc(C(=O)Nc2ccc3nc(C)sc3c2Cl)cc1	.	-0.08
CCC(C)c1ccccc1NC(=S)Nc1cccnc1 (centres undefined)	-0.5	-0.055
CC(=O)N(/C=C1\SC(=S)N(Cc2ccccc2)C1=O)c1ccccc1	0.85	0.82
COC(=O)c1ccc(Cn2cnc3ccccc32)cc1	-1.1	-0.15
Cc1nnc(SCC(=O)NC(C)c2ccc(CC(C)C)cc2)n1N (centres undefined)	-0.75	.
COc1ccccc1C1CC(=O)Nc2cc3c(cc21)CCC3 (centres undefined)	-4	0.21
O=C(c1ccc(S(=O)(=O)N2CCOCC2)cc1)N1CCN(CCN2C(=O)c3cccc4cccc(c34)C2=O)CC1	.	2.9
CC1=C(C(=O)OCCOc2ccccc2)C(c2ccccc2OC(C)C)NC(=O)N1 (centres undefined)	.	-0.035
CCn1nc(C)cc1C(=O)Oc1ccc(C)cc1	-0.15	0.06
Cc1cc(/C=C(\C#N)C(N)=S)c(C)n1C1CC1	-0.4	.
CCOC(=O)C1=C(C)NC(=O)NC1c1ccc(OCc2ccc(Cl)cc2Cl)c(OC)c1 (centres undefined)	.	-0.32
CCOC(=O)c1nc(-c2ccccc2)oc1N1CCOCC1	1.6	65
Cc1cccc(-n2nnc(-c3ccc(C(C)(C)C)cc3)n2)c1	-0.25	0.07
CCOC(=O)c1sc(N)nc1C	.	0.59
COC(=O)c1ccc(NC(=O)CSC2=NCCN2)cc1	0.45	-0.09
CCC(C)NC(=O)Cn1cnc2onc(-c3ccc(Cl)cc3)c2c1=O (centres undefined)	0	-0.23
Cc1cc(C)nc(SCc2ccccc2C(=O)N2CCN(Cc3ccc4c(c3)OCO4)CC2)n1	0.8	.

Grouped by structure: the entries above with an aryl thioether with sulfur outside any ring.
SMILES	AID504770	Ba CapD inh
O=C(CSc1nnc(NC(=O)C2CC2)s1)Nc1ccccc1	-0.95	0.1
CCOC(=O)c1cc(CSc2n[nH]c(=O)n2-c2ccccc2)on1	-0.25	-0.095
Cc1ccc(C)c(-n2nnnc2SCC(=O)OCC(=O)Nc2ccccc2C)c1	-0.25	.
FC(F)(F)c1ccc(-c2nnc(SCc3ccc(Cl)cc3)s2)nc1	1.2	0.47
CCOC(=O)c1sc(SCc2ccccc2)c2c1CCCC2=O	.	-0.22
CCSc1nnc(-c2cccc(Cl)c2)n1CC	0.35	.
Cc1ccccc1-n1c(SC2CCOC2=O)nnc1-c1ccncc1 (centres undefined)	-0.15	.
O=C(CSc1ccc(Br)cc1)NCCCc1ccccc1	1.8	-0.77
CCNc1nc(NC(C)C)nc(SC)n1	-0.1	-1.2
O=C(CSc1c2c(nc3ccc(Cl)cc13)CCCC2)NC1CC1	1.4	-0.22
Cn1c2ccccc2c2nnc(SCCCC(=O)c3ccc(F)cc3)nc21	-0.35	0.73
N#Cc1c(SCCCOc2ccccc2)sc2c(=O)[nH]c(=O)[nH]c12	-0.85	.
CSc1nc2ccc(NC(=O)CCNC(C)=O)cc2s1	-0.6	.
Cc1nnc(SCC(=O)NC(C)c2ccc(CC(C)C)cc2)n1N (centres undefined)	-0.75	.
Cc1cc(C)nc(SCc2ccccc2C(=O)N2CCN(Cc3ccc4c(c3)OCO4)CC2)n1	0.8	.
